Source: PubChem (National Center for Advancing Translational Sciences (NCATS))
D2 ag = Beta-Arrestin HTS for Positive Allosteric Modulators of the Human D2 Dopamine Receptor: Agonists. D(2) dopamine receptor (Homo sapiens), P14416. AID 624465, 2012. activation, % (concentration not given with the values). actives 0.084% (n = 360,000). DiscoveRx PathHunter D2 beta-arrestin, luminescence, 90 min; 100% = 57 uM dopamine signal; in the data active = activation above about 40%; inconclusive = about 15% to 40%; inactive = below about 15%; further: compound concentration not given in the record; the text of the record calls up to 30% inactive
Target sequence (P14416 whole entry, looked up): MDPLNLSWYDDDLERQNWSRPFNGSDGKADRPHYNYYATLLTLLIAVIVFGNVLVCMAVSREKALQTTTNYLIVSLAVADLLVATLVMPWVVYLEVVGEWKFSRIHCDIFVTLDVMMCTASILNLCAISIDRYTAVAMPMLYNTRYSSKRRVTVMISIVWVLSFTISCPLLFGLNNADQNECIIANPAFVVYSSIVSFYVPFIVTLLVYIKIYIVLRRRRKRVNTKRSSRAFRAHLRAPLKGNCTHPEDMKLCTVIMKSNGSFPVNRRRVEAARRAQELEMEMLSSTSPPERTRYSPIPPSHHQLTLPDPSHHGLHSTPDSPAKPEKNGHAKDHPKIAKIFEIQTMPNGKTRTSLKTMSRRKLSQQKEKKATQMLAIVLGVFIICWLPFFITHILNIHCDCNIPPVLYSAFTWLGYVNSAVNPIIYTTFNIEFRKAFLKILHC
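DiscoveRx PathHunter D2 beta-arrestin cells (2,100/well) attached overnight, then compound-stimulated 90 min at 37 C in HBSS/10 mM HEPES/0.1% Tween-20 buffer; beta-galactosidase complementation read by luminescence after 1 h at ambient temperature. Dopamine 57 uM final (EC100) as control.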
TRPML1 agonist = qHTS for Agonists of the Human Mucolipin Transient Receptor Potential 1 (TRPML1); Mucolipin-1 (Homo sapiens), Q9GZU1; TRPML1-expressing cells, Ca2+ dye fluorescence, FDSS; host cell line not named in the record; reference of the full effect not given here; activation, % (test concentration not listed); actives 0.12% (n = 410,000); AID 624414, 2012; in the data active = activation above about 50%; inconclusive = about 30% to 50%; inactive = below about 30%; further: 0% is about no effect; the text of the record puts the active cut at 80%
Target sequence (Q9GZU1 whole entry, looked up): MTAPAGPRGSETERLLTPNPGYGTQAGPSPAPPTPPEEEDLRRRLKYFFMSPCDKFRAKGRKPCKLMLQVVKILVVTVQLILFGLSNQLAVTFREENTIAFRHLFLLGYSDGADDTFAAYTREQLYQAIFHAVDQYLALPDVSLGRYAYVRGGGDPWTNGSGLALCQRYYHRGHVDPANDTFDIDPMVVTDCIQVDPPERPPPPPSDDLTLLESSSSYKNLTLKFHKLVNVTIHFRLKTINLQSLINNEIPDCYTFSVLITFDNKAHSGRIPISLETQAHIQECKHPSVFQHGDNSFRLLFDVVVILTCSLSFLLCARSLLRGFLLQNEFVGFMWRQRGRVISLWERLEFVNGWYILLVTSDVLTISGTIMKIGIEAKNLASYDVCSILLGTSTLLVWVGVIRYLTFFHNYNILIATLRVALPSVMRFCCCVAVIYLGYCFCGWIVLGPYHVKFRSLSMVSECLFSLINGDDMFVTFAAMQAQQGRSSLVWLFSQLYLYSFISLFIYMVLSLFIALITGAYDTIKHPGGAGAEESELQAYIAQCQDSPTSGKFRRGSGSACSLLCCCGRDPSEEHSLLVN
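Tet-induced TRPML1-DL cells, 1,500 per well, cultured overnight, were loaded with a no-wash Ca2+ dye for 45–90 min. Calcium fluorescence was recorded on the FDSS for 110 s after compound addition, before the EC80 agonist (4 uM 54-4) was added.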
CtBP-E1A inh = qHTS Assay for Inhibitors of the CtBP/E1A Interaction; actives 0.49% (n = 340,000); AlphaScreen GST-E1A/His-CtBP binding, 1536-well; active compounds read low; control for the full effect not named in the record; AID 651724, 2012; CtBP / adenovirus E1A interaction (AlphaScreen); activity change, % (test concentration not listed); in the data active means activity change below about -65%; inconclusive means about -30% to -65%; inactive means above about -30%; further: on the % scale 0 is the no-effect control and ±100 the full control effect
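GST-E1A and His-tagged CtBP (125 nM each as 5X stock) were preincubated with pin-transferred compound for 2 h at 37 °C in the dark, then glutathione donor and nickel acceptor beads were added for 1 h before AlphaScreen reading.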
D2 PAM = Beta-Arrestin HTS for Positive Allosteric Modulators of the Human D2 Dopamine Receptor: Potentiators. D(2) dopamine receptor (Homo sapiens), P14416. DiscoveRx D2 beta-arrestin cells, luminescence, 90 min; 100% = 57 uM dopamine signal. potentiation, % (test concentration not listed). actives 0.23% (n = 360,000); active = potentiation of 50% or more; inconclusive = 30% to 50%; inactive = 30% or less;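 further: compound concentration not given in the record; tested on top of an EC20 dose of dopamine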
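D2 cells co-treated with compound plus 50 nM dopamine (EC20) for 90 min at 37 deg C to detect potentiation. Beta-arrestin recruitment was read as enzyme-fragment luminescence after 1 h at ambient temperature. Full response was set by 57 uM dopamine.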
PINK1 modulator = A Quantitative High throughput Screen to Identify Chemical Modulators of PINK1 Expression | actives 0.2% (n = 410,000) | Potency, µM (doses to about 76.6 µM), for inactives: top-dose activation (PINK1 increase), hits mostly activators | PINK1 immunofluorescence, high-content cytometry, 24 h | AID 624263, 2012; active = well fitted activation curve with a large enough effect; inconclusive = small, poorly fitted or top-dose-only effect; inactive = flat fitted curve, though single readings scatter; cell line not stated here;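 further: potency means the concentration at half of the fitted maximal effect; % of control where 0% means no effect; nearly all actives have a fitted effect of over 65% in size; a mitochondrial uncoupler was the plate control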
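PINK1 protein, normally rapidly degraded, was detected by immunofluorescence after 24 hour compound treatment of a stable cell line. Titration data (5 concentrations) came from laser-scanning cytometry, with CCCP-treated wells as controls.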
Six1-Eya2 blk = qHTS Assay for Inhibitors of the Six1/Eya2 Interaction; Homeobox protein SIX1 (Homo sapiens) + Protein phosphatase EYA2 (Homo sapiens), …; AlphaScreen GST-Six1/His-Eya2 binding, biochemical; active compounds read low; control for the full effect not named in the record; activity change, % (test concentration not listed); actives 0.56% (n = 360,000); AID 651725, 2012; in the data active = activity change below about -65%; inconclusive = about -30% to -65%; inactive = above about -30%; further: on the % scale 0 is the no-effect control and ±100 the full control effect
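Homogeneous AlphaScreen proximity assay pairing GST-Six1 with His-tagged Eya2 (added as 5X mix: 250 nM and 500 nM) in 50 mM Tris pH 8.0, 300 mM NaCl, 1 mM TCEP. Glutathione donor and nickel acceptor beads; 1 h, 37 °C, dark.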
* marks the source's active call; other numbers are inactive results; ? = inconclusive; · = not tested or not shown; [ ] = remark or other dose.

canonical_smiles | D2 ag | TRPML1 agonist | CtBP-E1A inh | D2 PAM | PINK1 modulator | Six1-Eya2 blk
O=C(COc1ccc2ccc(=O)oc2c1)N1CC[C@@]2(O)CCCC[C@H]2C1 | -2.9 | · | 0 | -13 | 1.9% | 0
COc1ccc(C(=O)NC2CCCCC2)cc1S(=O)(=O)N1CCCC1 | -1.7 | 4.7 | -1 | -1 | -0.5% | 1
O=C(CCC(=O)c1ccc(Oc2ccccc2)cc1)Nc1ccc(Cl)cc1Cl | 0.9 | 4.5 | 2 | 0 | 1.2%[38.3 µM] | 9
CC(=O)Nc1ccc(S(=O)(=O)N2CCc3cc4c(cc3C2C)OCCCO4)cc1 (stereo unspecified) | -5.7 | -0.3 | -4 | -9 | -0.1% | -4
O=C(Nc1ccc(CN2CCCCC2)cc1)c1cccc(F)c1 | -0.9 | -0.2 | 6 | -30 | -0.7% | -6
COc1ccc(/C=N/Nc2nc(-c3cccc(S(=O)(=O)N4CCCC4)c3)cs2)c(OC)c1 | ? | 0.0 | 18 | ? | 9.5% | -7
CC(C)CCNC(=O)c1ccc(CSCc2cccc(F)c2)o1 | -2.0 | 3.6 | 9 | -26 | 2.3% | 11
CCCNC(=O)C1(C)CCN(C(=O)c2cccc(C(F)(F)F)c2)C1 (stereo unspecified) | -3.4 | -0.4 | 5 | -4 | -0.3% | 11
CNS(=O)(=O)c1cc(NC(C)=O)c(C)cc1C | 0.7 | 0.4 | 10 | -11 | -1.8% | 3
O=C(Nc1ccc(F)cc1)NC1CCCc2ccccc21 (stereo unspecified) | -0.3 | 0.6 | 2 | -14 | 6.0% | 8
COc1cc(C2C(C#N)=C(N)OC3=C2C(=O)CCC3)cc(OC)c1OC(=O)N1CCOCC1 (stereo unspecified) | -2.3 | 1.3 | 2 | -3 | -2.8% | -1
O=C(NC1CCCC1)c1ccc(S(=O)(=O)N2CCCC2)cc1 | -0.5 | 4.9 | 1 | 1 | 1.7%[38.3 µM] | 6
COc1ccc(C2(CNC(=O)c3ccco3)CCOCC2)cc1 | -1.2 | -1.1 | 2 | -3 | -1.9% | 5
CC(C)N(c1ccccc1)c1ncnc(NCCC(=O)O)c1[N+](=O)[O-] | -4.8 | -0.2 | 0 | -10 | -3.5% | 12
O=C(O)CCc1ccc(-c2cccs2)n1CC1CCCO1 (stereo unspecified) | -0.4 | -1.0 | -5 | -8 | 2.0% | 3
CC1=C(C(=O)OCC2CCCO2)C(c2cccc(C(F)(F)F)c2)C2=C(CC(c3ccco3)CC2=O)N1 (stereo unspecified) | -5.9 | 1.3 | 12 | -22 | · | -2
CC(C)c1nc(SCC(=O)Nc2ccc3c(c2)OCO3)n[nH]1 | -1.4 | -0.8 | 3 | -8 | -0.9% | -7
CCOC(=O)N1CCN(S(=O)(=O)c2ccc3c(c2)CCN3C(=O)CC)CC1 | -0.4 | -1.0 | -1 | -11 | -0.3% | 8
Cc1cccc(C)c1NC(=O)c1cc(S(=O)(=O)N2CCOCC2)cn1C | -1.1 | -0.7 | 2 | -1 | -0.3% | 3
CCOc1ccc(C(=O)NC(=S)Nc2ccc(NC(=O)C(C)C)cc2)cc1[N+](=O)[O-] | 3.6 | 0.0 | 15 | -8 | 27% | 1
COc1cccc(NC(=O)C2CCCN2C(=O)NC2CCCCC2)c1 (stereo unspecified) | 0.4 | 0.4 | 15 | 0 | -0.3% | -4
O=C(COC(=O)c1cccnc1Cl)NC(=O)c1ccc(OC(F)F)cc1 | 3.6 | 1.1 | -8 | -18 | 1.3% | 14
CCC(C)(C)n1nnnc1C(c1cccnc1)N1CCCC(C)C1 (stereo unspecified) | 0.1 | -1.4 | · | 2 | -1.9% | 0
C=CCN1C(=O)c2ccc(C(=O)N3CCN(S(=O)(=O)c4ccc(C(C)C)cc4)CC3)cc2C1=O | 7.8 | 1.3 | 2 | 5 | 5.4% | 1
c1ccc(CNc2nc(-c3ccccc3)nc3ccccc23)cc1 | -1.3 | 0.8 | 6 | -4 | ? | 1
CN(c1ccc(O)cc1)c1nc(-c2cccs2)cs1 | 4.0 | 0.5 | 0 | 11 | 0.7% | -7
O=C(COc1ccc(Br)cc1)Nc1ccc(CN2CCOCC2)cc1 | -0.4 | 1.0 | -5 | -6 | 2.1% | -1
COC(=O)c1oc2ccc(Cl)cc2c1-n1cccc1 | -0.8 | 0.7 | -12 | -6 | -1.3% | -10
Cc1nccnc1Sc1ccccc1 | 1.8 | 1.2 | -7 | -4 | 2.4% | 14
CC(C)N(CC#CC(O)(c1ccccc1)c1ccccc1)CCO | -4.6 | 0.5 | -7 | -2 | 3.5% | -4
O=C(Nc1ccccc1N1CCOCC1)c1ccccc1NS(=O)(=O)c1ccc(F)c(F)c1 | 0.3 | 0.2 | -8 | -14 | 14% | 1
CCCCn1c(N)c(N(CCOC)C(=O)COC(=O)c2ccccc2NCCO)c(=O)[nH]c1=O | -2.0 | 0.7 | -19 | 0 | 0.7% | 6
Cc1ccc(NC(=O)c2cc(C)nc3ccccc23)cc1 | -3.5 | 0.2 | · | -27 | 3.0% | 2
O=C(/C=C/c1cc([N+](=O)[O-])ccc1OC(F)F)Nc1cccc([N+](=O)[O-])c1 | -1.5 | 0.2 | 4 | -2 | 1.7% | -1
CC1(c2nnc(Cc3ccccc3)o2)CC(c2cccc(F)c2)=NO1 (stereo unspecified) | -1.7 | -0.2 | 8 | -12 | -1.7% | 3
COC(=O)c1sccc1NC(=O)Nc1cc(OC)ccc1OC | -1.4 | 1.2 | -11 | -18 | 0.3% | -9
O=C(Cc1ccc(Br)cc1)Nc1ccccc1N1CCCC1 | -4.7 | 0.7 | -15 | -4 | 3.7% | -24
Cc1ccc(CNCc2cccnc2)s1 | -2.3 | 0.7 | · | -3 | 1.8% | 24
NC(=O)c1ccc[n+](CC(=O)c2ccc(NC(=O)c3ccccc3)cc2)c1 | -4.0 | 0.0 | -2 | -16 | 3.1% | 3
C/C(=N\NC(=O)c1cccc(N/N=C(\C)c2ccccc2)c1)c1ccccc1 | -2.6 | -0.6 | -8 | -3 | 0.8% | -23
CCOc1ncccc1C(=O)OCC(=O)N(CC(C)C)c1c(N)n(Cc2ccccc2)c(=O)[nH]c1=O | 2.0 | -0.2 | 1 | -25 | -0.8% | 6
C=C1SC(Nc2c(C)cccc2C)=NC12CCCCC2 | 0.8 | -0.2 | -1 | -10 | ? | -3
CN1CCN(c2cc(-c3ccc4ccccc4c3)nc3ccnn23)CC1 | -5.3 | -0.7 | -2 | -18 | 45µM* | -6
Cc1ccc(NC(=O)CSc2nc(N)cc(=O)[nH]2)cc1S(=O)(=O)N1CCCCCC1 | 0.8 | -0.4 | -5 | -6 | 0.0% | 1
CCCS(=O)(=O)NC(=O)C1(C)CCCN(C(=O)c2cc(F)ccc2C)C1 (stereo unspecified) | -5.8 | -0.6 | 2 | 0 | 0.4% | 3

3 of the entries above in order of the D2 ag value, rising.
SMILES | D2 ag | CtBP-E1A inh | D2 PAM | Six1-Eya2 blk
NC(=O)c1ccc[n+](CC(=O)c2ccc(NC(=O)c3ccccc3)cc2)c1 | -4.0 | -2 | -16 | 3
COC(=O)c1sccc1NC(=O)Nc1cc(OC)ccc1OC | -1.4 | -11 | -18 | -9
CCOc1ncccc1C(=O)OCC(=O)N(CC(C)C)c1c(N)n(Cc2ccccc2)c(=O)[nH]c1=O | 2.0 | 1 | -25 | 6

Remaining list, next part
canonical_smiles | D2 ag | TRPML1 agonist | CtBP-E1A inh | D2 PAM | PINK1 modulator | Six1-Eya2 blk
O=C(c1cccs1)N1CCN(c2nc3ccccc3s2)CC1 | 4.1 | 0.5 | -2 | 0 | 0.6% | 1
N#CCCN(C(=O)CN1C(=O)NC2(CCCC2)C1=O)c1ccccc1F | -2.8 | 0.3 | -1 | -4 | 0.3% | 6
Cc1[nH][nH]c(=O)c1C | -7.8 | -0.5 | 5 | -5 | -0.7% | -1
CCOc1ccc(NC(=O)c2ccc(NC(=O)COC(=O)c3ccc(NC(=O)CC#N)cc3)cc2)cc1 | -2.5 | 0.4 | 2 | -2 | 6.7% | ?
N=c1c2c(n(Cc3ccc(F)cc3)c3c1CCC3)CCCC2 | -5.5 | 0.4 | · | -34 | 1.4% | 8
CC(C)C(=O)N(c1ccc2oc(=O)sc2c1)S(=O)(=O)c1cccs1 | 2.6 | -0.8 | -1 | 19 | 1.1% | -21
O=C1CCC/C1=C/Nc1ccc2c(c1)OCO2 | -0.6 | -0.2 | 6 | 1 | · | 9
O=C(Nc1ccnn1C1CCN(Cc2cccc(OCCO)c2)CC1)c1cccc(F)c1 | -2.1 | 0.5 | 0 | -9 | 0.1% | -2
Cc1nc(NC(=O)CSc2nnnn2C)sc1C | -1.3 | 0.1 | -10 | -5 | -2.5% | 1
Cc1cc(Cl)ccc1OCC(=O)OC(C)C(=O)NC(N)=O (stereo unspecified) | -3.0 | -0.7 | 42 | -14 | ? | 0
CCCNC(=O)c1ccc(N2CCC3(CC2)CC(c2cccc(Br)c2)=NO3)c(NC(=O)c2ccccc2)c1 | 0.9 | 0.7 | 0 | 0 | 0.6% | -2
CCOC(=O)CC(=O)CSc1nc2ccccc2c(=O)n1-c1ccc(C(=O)N2CCOCC2)cc1 | 0.3 | -0.1 | 9 | -15 | -3.9%[38.3 µM] | 3
Clc1ccc(-c2nnc(NCCN3CCCC3)c3ccccc23)cc1 | 1.5 | · | 20 | -18 | -0.9% | -20
CC(C)OC(=O)CC1C(=O)NCCN1C(=S)NC(=O)CCc1ccccc1 (stereo unspecified) | 0.0 | 0.7 | 7 | 4 | 0.3% | 5
CCOC(=O)C1=C(CC)OC(N)=C(C#N)C1c1ccsc1 (stereo unspecified) | -3.1 | 1.3 | -2 | -8 | 4.8% | -2
COc1cc(C(=O)Nc2ccc(N(C)C)cc2)c([N+](=O)[O-])cc1OC | -1.3 | -0.5 | -5 | -6 | 2.2% | -5
Nc1cc(C(F)(F)F)cc([N+](=O)[O-])c1N | -6.4 | 0.8 | -10 | -5 | 1.1% | -18
COC(=O)/C=c1/s/c(=C(/C#N)C(=O)N2CCCCC2)n(-c2ccccc2)c1=O | -5.0 | 0.1 | 0 | -6 | 0.9% | 3
Cc1nc(NN)nc(NCc2ccccc2)n1 | -2.2 | 2.2 | 0 | 0 | -2.1% | -2
